Screens deposited in PubChem BioAssay by National Center for Advancing Translational Sciences (NCATS).
Vaccinia mCherry: qHTS for Stage-Specific Inhibitors of Vaccinia Orthopoxvirus: mCherry Reporter Primary qHTS. Potency, µM (doses to about 36.5 µM), for the others: at the top dose activity change, negative = inhibition, most hits filed as inhibitors. Vaccinia virus mCherry reporter infection, fluorescence; about a quarter of the inactives have no number. 310,000 compounds, 0.63% hits; active = well fitted inhibition curve with a large enough effect; inconclusive = small, poorly fitted or top-dose-only effect; inactive = no such curve, though single readings can be large or run the other way; tested in A549 cells; further: nearly all actives have a fitted effect of over 35% in size; inactives centre near -10
VACV Venus inh: qHTS for Stage-Specific Inhibitors of Vaccinia Orthopoxvirus: Venus Reporter Primary qHTS. 330,000 compounds, 0.46% hits. Vaccinia virus Venus reporter expression, fluorescence. Potency, µM (doses to about 36.5 µM), without a hit: top-dose activity change, negative = inhibition, most hits filed as inhibitors; active means well fitted inhibition curve with a large enough effect; inconclusive means small, poorly fitted or top-dose-only effect; inactive means no such curve, though single readings can be large or run the other way; tested in A549 cells; further: nearly all actives have a fitted effect of over 30% in size; inactives centre near -10
* = called active by the depositor; i = inactive; ? = inconclusive; . = no result given; & = joins results of further samples; [ ] = another dose, or the depositor's remark. On the % scale 0 is the no-effect control and ±100 the full control effect; potency means the concentration at half of the fitted maximal effect.

SMILES	Vaccinia mCherry	VACV Venus inh
CSc1ccc(NC(=O)NCc2cccnc2)cc1	-6%	-16%
O=c1c(S(=O)(=O)c2cccc(Cl)c2)cn(Cc2ccccc2)c2cc(N3CCCCC3)c(F)cc12	-2%	-21%
COc1ccccc1NC(=O)CSC1=Nc2ccccc2N=C(c2ccc(F)cc2)C1	8%	3%
Cc1ccc2nc(N3CCN(c4cccc(C(F)(F)F)c4)CC3)c3nnnn3c2c1	3%	15%
Cc1ccc(C(C)C)cc1NC(=O)Nc1ccc([N+](=O)[O-])cc1	?	10µM*
CCCCOC(=O)c1cccc(NC(=O)c2cc3ccccc3o2)c1	-12%	2%
Oc1ccc(N2CCN(Cc3c(-c4ccccc4)nc4ccccn34)CC2)cc1	?	0%
Cc1ccc2nnn(Cc3cccc(C(C)(C)C)c3O)c2c1	-7%	-28%
COc1ccc(CNC(=O)C2CCN(S(=O)(=O)N3CCC(C)CC3)CC2)c(OC)c1	-11%	-12%&-18%
CCOc1ccc(NC(=O)c2ccc3c(=O)n4nc(Nc5ccccc5C)sc4nc3c2)cc1	-26%	-20%
Cc1nc(NC(=O)CSc2nc3cccnc3n2C2CCCCC2)sc1C	-3%	-25%
Cc1cc(CN2CCN(CCC#N)CC2)c(O)c(C2(C)CCCCC2)c1	-3%	-3%
Cc1ccc(NC(=O)c2cccs2)cc1NC(=O)c1cccnc1	i	-8%
CCn1c(C(=O)N2CCc3ccccc3C2)cc2sccc21	?	?
CCN(C(=O)c1coc(=O)c(Br)c1)c1ccc2c(c1)OCO2	-14%	-3%
CCNC(=S)N(Cc1c(C)noc1C)c1ccccc1	i	-9%
COc1ccccc1N1CCN(S(=O)(=O)CCNC(=O)C2CC2)CC1	i	-11%
Cc1cccc(NC(=O)/C(C#N)=C\c2cc(C)n(-c3ccc(C(=O)O)cc3)c2C)c1	i	-6%
COc1ccc2oc3c(ccc[n+]3C)c(=O)c2c1	19%	-3%
Cc1ccc(N2C(=O)NC(C(F)(F)F)(C(F)(F)F)C3=C2CC(C)(C)CC3=O)cc1	-19%	-7%
COCCCn1c(SCC(=O)NCc2ccccc2)nc2ccccc2c1=O	-14%	-11%
c1ccc(CN2CCN(c3ncccn3)CC2)cc1	-11%	-5%
Nn1c(COc2ccccc2F)nnc1SCC(=O)NC1CCCCC1	-2%	-12%
CC(OC(=O)c1ccc(NC(N)=O)cc1)C(=O)Nc1ccc2c(c1)OCCO2 (stereo not drawn)	i	-1%
CCOC(=O)[C@]12Cc3ccccc3[C@H]1N(C(C)C)C(=O)c1cc(OC)ccc12	?	?
CCCc1cc(C(=O)NC2CCCCC2)no1	-6%	1%
Cc1ccc(NC(=O)CSc2nc(-c3cccs3)nc3cc(=O)[nH]n23)cc1	2%	-2%
CC(=O)c1ccc(OCC(=O)Nc2ccc3c(c2)OCO3)cc1	-8%	-9%
COc1ccccc1NC(=O)CSc1ccc(-c2ccccn2)nn1	14µM*	?
Cc1ccc(S(=O)(=O)NCCC(=O)NCC(c2ccco2)N2CCCCC2)cc1C (stereo not drawn)	?	-12%
COc1cccc(C2C(C(=O)c3ccc(C)o3)=C(O)C(=O)N2CCN2CCOCC2)c1OC (stereo not drawn)	i	-7%
CC1=NN(c2ccc(C)cc2C)C(=O)C1C(c1ccccc1O)C1C(=O)N(c2ccc(C)cc2C)N=C1C (stereo not drawn)	i	-11%
CCN1C(=O)c2ccc(C(=O)NCc3ccccc3)cc2C1=O	-28%	-24%
COc1c(F)c(F)c(C(=O)O)c(Nc2cc(C)cc(C)c2)c1F	-27%	-1%
CCCc1c(C(=O)N/N=C(\C)c2ccc(CC(C)C)cc2)nnn1-c1nonc1N	i	-25%
Cc1c(Cl)cccc1NC(=S)N(Cc1cccnc1)Cc1ccccc1Cl	-1%	7%
Cc1ccc(Cl)cc1N1CCN(C(=O)COc2ccc(S(=O)(=O)NC(C)C)cc2)CC1	?	?
CC1CCN(C(=O)CSc2nncn2C)CC1	.	-10%
CCOCCCn1c(SC(C(=O)Nc2cc(C)ccc2C)c2ccccc2)nnc1-c1ccc(Cl)cc1 (stereo not drawn)	-14%	1%
O=C(Nc1ccccn1)c1ccc(CN(c2ccccc2)S(=O)(=O)c2ccccc2)cc1	-9%	-9%
CCC(=NC1CC1)c1c(O)n(-c2ccc(OC)cc2)c(=O)[nH]c1=O	.	-10%
O=C1CCC/C1=C/Nc1cccc(F)c1	-1%	-4%
Cc1nc(Oc2ccccc2C)c2oc3ccccc3c2n1	-28%	-24%
Cc1ccc(CNC(=O)c2cnc3c(-c4ccccc4)c(C)nn3c2C)o1	-4%	-1%
CCOC(=O)C1=C(C(F)(F)F)Nc2ncnn2C1c1ccc(OC)c(OC)c1OC (stereo not drawn)	-18%	-9%
CC(=O)C(Cc1cnc(Cl)s1)(Cc1cnc(Cl)s1)C(C)=O	.	-20%
O=C(CN(CCc1ccccc1)S(=O)(=O)c1ccc(Br)cc1)N/N=C/c1ccccc1C(=O)O	-19%	-18%
COc1ccc(C2c3c(n(C)c4ccccc34)C(=O)N2CC(=O)Nc2ccccc2Cl)cc1 (stereo not drawn)	-15%	-14%
COc1ccc(CCNC(=O)Cc2cccc(C(F)(F)F)c2)cc1OC	-26%	-9%
CCOCCCN1C(=O)CN(C2CCC(C)CC2)C(=O)C1c1ccc(C)cc1 (stereo not drawn)	i	-12%
Additional compounds
SMILES	Vaccinia mCherry	VACV Venus inh
CC(=O)c1oc2ccccc2c1NC(=O)CCCN1C(=O)c2ccccc2C1=O	i	3%
Cc1cc(C)n2c(Nc3ccc4c(c3)OCCO4)c(CCc3ccccc3)nc2n1	-17%	-15%
COc1cc(Cl)c(C)cc1NC(=O)CCc1nc2cccnc2n1Cc1cccs1	-9%	-5%
CC(=O)c1cccc(S(=O)(=O)Nc2cccnc2)c1	i	-17%
CCOC(=O)Cc1csc(NS(=O)(=O)Cc2ccccc2)n1	-11%	-17%
COCCCn1c(C)cc(C(=O)COC(=O)C23CC4CC(CC(O)(C4)C2)C3)c1C	-7%	-21%
CC(C)c1cc(NC(=O)C(C)(C)C)cc(C(C)C)c1O	-17%	-7%
COC(=O)C1=C(c2ccc(OC)c(OC)c2)C[C@@H]2CC[C@H]1N2C(=O)NCc1cccc2ccccc12	-21%	-16%
COc1ccc(OC)c(-n2nnnc2SCC(=O)Nc2ccc3c(c2)OCCO3)c1	-6%	-9%
Cc1ccc(CCNC(=O)c2cc3c(=O)n(C)c4ccccc4c3n2C)cc1	2%	-5%

Some of the entries so far, as a markdown table:
| compound | Vaccinia mCherry | VACV Venus inh |
| --- | --- | --- |
| COc1c(F)c(F)c(C(=O)O)c(Nc2cc(C)cc(C)c2)c1F | -27% | -1% |
| CCCc1c(C(=O)N/N=C(\C)c2ccc(CC(C)C)cc2)nnn1-c1nonc1N | i | -25% |
| Cc1c(Cl)cccc1NC(=S)N(Cc1cccnc1)Cc1ccccc1Cl | -1% | 7% |
| Cc1ccc(Cl)cc1N1CCN(C(=O)COc2ccc(S(=O)(=O)NC(C)C)cc2)CC1 | ? | ? |
| CC1CCN(C(=O)CSc2nncn2C)CC1 | . | -10% |
| CCOCCCn1c(SC(C(=O)Nc2cc(C)ccc2C)c2ccccc2)nnc1-c1ccc(Cl)cc1 (stereo not drawn) | -14% | 1% |
| O=C(Nc1ccccn1)c1ccc(CN(c2ccccc2)S(=O)(=O)c2ccccc2)cc1 | -9% | -9% |
| CCC(=NC1CC1)c1c(O)n(-c2ccc(OC)cc2)c(=O)[nH]c1=O | . | -10% |
| O=C1CCC/C1=C/Nc1cccc(F)c1 | -1% | -4% |
| Cc1nc(Oc2ccccc2C)c2oc3ccccc3c2n1 | -28% | -24% |
| Cc1ccc(CNC(=O)c2cnc3c(-c4ccccc4)c(C)nn3c2C)o1 | -4% | -1% |
| CCOC(=O)C1=C(C(F)(F)F)Nc2ncnn2C1c1ccc(OC)c(OC)c1OC (stereo not drawn) | -18% | -9% |
| CC(=O)C(Cc1cnc(Cl)s1)(Cc1cnc(Cl)s1)C(C)=O | . | -20% |
| O=C(CN(CCc1ccccc1)S(=O)(=O)c1ccc(Br)cc1)N/N=C/c1ccccc1C(=O)O | -19% | -18% |
| COc1ccc(C2c3c(n(C)c4ccccc34)C(=O)N2CC(=O)Nc2ccccc2Cl)cc1 (stereo not drawn) | -15% | -14% |
| COc1ccc(CCNC(=O)Cc2cccc(C(F)(F)F)c2)cc1OC | -26% | -9% |
| CCOCCCN1C(=O)CN(C2CCC(C)CC2)C(=O)C1c1ccc(C)cc1 (stereo not drawn) | i | -12% |
| CC(=O)c1oc2ccccc2c1NC(=O)CCCN1C(=O)c2ccccc2C1=O | i | 3% |
| Cc1cc(C)n2c(Nc3ccc4c(c3)OCCO4)c(CCc3ccccc3)nc2n1 | -17% | -15% |
| COc1cc(Cl)c(C)cc1NC(=O)CCc1nc2cccnc2n1Cc1cccs1 | -9% | -5% |
| CC(=O)c1cccc(S(=O)(=O)Nc2cccnc2)c1 | i | -17% |
| CCOC(=O)Cc1csc(NS(=O)(=O)Cc2ccccc2)n1 | -11% | -17% |
| COCCCn1c(C)cc(C(=O)COC(=O)C23CC4CC(CC(O)(C4)C2)C3)c1C | -7% | -21% |
| CC(C)c1cc(NC(=O)C(C)(C)C)cc(C(C)C)c1O | -17% | -7% |

Profiles from above. Screens in order: Vaccinia mCherry | VACV Venus inh
COC(=O)C1=C(c2ccc(OC)c(OC)c2)C[C@@H]2CC[C@H]1N2C(=O)NCc1cccc2ccccc12 reads -21% | -16%
CC(=O)c1cccc(S(=O)(=O)Nc2cccnc2)c1 reads i | -17%

(further entries)
SMILES	Vaccinia mCherry	VACV Venus inh
COc1ccc(CCNC(=O)COC(=O)/C=C/c2ccc(OCC#N)c(OC)c2)cc1OC	i	-5%
CCN(C(=O)C1CCCN(c2ncnc3c2nc2n3CCCCC2)C1)c1cccc(C)c1 (stereo not drawn)	-16%	-10%
COc1ccc(/C=N/N2C(=O)CSC2=S)cc1	i	-3%
CSc1ncccc1C(=O)OCC(=O)c1ccccc1Br	-3%	-7%
CCCCNC(=O)C[C@@H]1C[C@@]2(C(=O)OCC)CCCC=C2N(CCc2ccc(OC)c(OC)c2)C1=O	8%	-3%
Cc1ccc(C2CC(=O)C=C(NCC(C)C)C2)cc1 (stereo not drawn)	-3%	-5%
CCC(Oc1ccc(C)cc1)C(=O)Nc1ccc2c(c1)n(C)c(=O)n2C (stereo not drawn)	-18%	-4%
CC1Cc2ccccc2N1C(=O)CSc1nc2c(c(=O)n(C)c(=O)n2C)n1Cc1ccc(F)cc1 (stereo not drawn)	-22%	-7%
CC(=O)CC(=O)Nc1ccc(Nc2ccccc2)cc1	-7%	-7%
CN1CCN(c2cc(CNC[C@H]3O[C@@H](n4cnc5c(=O)[nH]c(N)nc54)[C@H](O)[C@@H]3O)ccc2F)CC1	i	1%
COC(=O)c1ccccc1SCc1csc(C)n1	?	-13%
Clc1ccc(-c2nc3c4ccccc4ccn3c2CC2CCCCC2)cc1	-16%	-9%
O=C(CSc1ccc(C(F)(F)F)cc1[N+](=O)[O-])Nc1ccc2ccccc2c1	i	-15%
CCOC(=O)C1=C(C)C(c2ccc(OC)cc2OC)NC(=O)N1 (stereo not drawn)	.	-22%
COc1ccc(CNC(=O)CSc2nnc(C)n2-c2ccc(F)cc2)cc1	i	-3%
COc1ccccc1[C@H]1C(c2ccccc2)=NN(c2ccccc2)[C@@H]1CO	-8%	-16%
Oc1ccc(/C=N/N2CCN(C3c4ccccc4-c4ccccc43)CC2)cc1O	?	-15%
c1ccc(CSc2nnc(NC3CCCCC3)s2)cc1	i	-12%
CCOC(=O)C1=CN(Cc2cccc(F)c2)S(=O)(=O)NC1c1ccccc1 (stereo not drawn)	-10%	-13%
COc1cc(OC)c2c(=O)cc(-c3cccnc3)oc2c1	i	-11%
O=C(NCc1cccc(F)c1)C1CCN(S(=O)(=O)Cc2ccccc2)CC1	-11%	-2%
COc1cccc(-c2ccc(SCC(=O)N3CCOCC3)nn2)c1	-17%	-4%
O=C(Cn1cc(S(=O)(=O)Cc2cccc(Cl)c2)c2ccccc21)NCc1ccccc1Cl	-19%	-13%
CCOC(=O)[C@]12CCC=C1N(Cc1ccc3c(c1)OCO3)C(=O)[C@H](CC(=O)NCCc1ccccc1OC)C2	?	-25%
CC12CCC(C(=O)N3CCCCC3)(CC1=O)C2(C)C (stereo not drawn)	i	-10%
Cc1cc(C)nc(/N=C(\N)Nc2ccc(OCCC(C)C)cc2)n1	?	?
CC(C)(C)OC(=O)N1CCC(C(=O)N2CCOCC2)CC1	.	-14%
Cc1nn(C)cc1/C=N/NC(=O)C1(O)c2ccccc2-c2ccccc21	-14%	-5%
COc1ccc(-c2[nH]c(-c3ccc(F)cc3)nc2SCC(=O)Nc2ccc(OC)c(OC)c2)cc1	-10%	-8%
CCc1cccc(NC(=O)CCc2c(C)nn(-c3ccc(N4CCOCC4)nn3)c2C)c1	-14%	-1%
CN1C(=O)C2(c3ccccc31)c1c(oc3ccccc3c1=O)C(=O)N2CCCO (stereo not drawn)	i	-18%
COc1ccccc1NC(=O)COC(=O)Cc1cccs1	-7%	-1%
O=C(NC12CC3CC(CC(C3)C1)C2)N1CCN(c2nc(-c3ccccc3)cs2)CC1	-19%[1.46 µM]	?
